Mtb growth: Mycobacterium tuberculosis H37Rv growth inhibition, cell based, confirmatory dose response (AID 1949). M. tuberculosis H37Rv growth inhibition. most inactive calls were filed without a number and no value below 0 was filed. inhibition, % at 10 µg/mL, or IC50 in µg/mL where a hit was titrated. 100,000 tested, 1.6% active;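 active = confirmed in a dose series; inconclusive = about 50% or more but not retested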;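 also: bacteria grown 7 days with compound before Alamar blue readout; 0% = untreated bacteria and 100% = reference antibiotic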
The depositor's hits bear a star; i = inactive; ? = inconclusive.

| SMILES | Mtb growth |
| --- | --- |
| CC(C)(C)c1ccc(Oc2ccc(N3C(=O)CCC3=O)cc2)cc1 | i |
| Cc1ccc(C)c(OC(=O)C(C)N2C(=O)C3C4C=CC(C5CC45)C3C2=O)c1 (stereo unspecified) | i |
| COc1ccc(-c2csc(NC(=S)NC(=O)c3cccc([N+](=O)[O-])c3)n2)cc1 | i |
| COC(=O)c1ccc(/C=C/c2ccc3cccc(OC)c3n2)cc1 | i |
| O=C1CC(N2CCC(c3nc4ccccc4[nH]3)CC2)C(=O)N1c1cccc(Cl)c1 (stereo unspecified) | 3% |
| CCc1cccc(CC)c1NS(=O)(=O)c1ccc(OCC(=O)OC)c(C)c1 | i |
| O=C1CC(Nc2ccc(Cc3nc4ccccc4[nH]3)cc2)C(=O)N1c1ccc(Br)cc1 (stereo unspecified) | i |
| CCOCCNC(=S)Nc1ccccc1 | i |
| CCOCCCNC(=O)c1cccc(C)c1 | i |
| O=c1[nH]cnc2scc(-c3ccc(F)cc3)c12 | i |
| CC(=O)c1cc(OC(=O)c2ccncc2)ccc1OC(=O)c1ccncc1 | i |
| CC(NC(=O)c1ccco1)c1ccc2c(c1)OCCO2 (stereo unspecified) | i |
| C=CCn1c(COc2ccc3c(c2)CCCC3)nnc1SCC(=O)c1ccc(Br)cc1 | 3% |
| COc1ccc(NC(=O)Nc2ccc(F)cc2F)c(C)c1 | i |
| COc1ccc(Cl)cc1NC(=O)c1ccccc1N(Cc1ccccc1)S(=O)(=O)c1ccccc1 | i |
| COc1ccccc1N1CCN(C(=O)Nc2cccc3ccccc23)CC1 | i |
| O=C(NC1CCN(Cc2ccccc2)CC1)c1c(F)cccc1F | i |
| CCOC(=O)c1cnn(-c2ccccc2)c1NC(=O)c1cccs1 | i |
| O=C(CN(c1ccccc1)S(=O)(=O)c1ccc(Cl)cc1)N1CCCCC1 | i |
| CN1CCN(C2CCN(C(=O)c3ccc(-c4ccccc4)cc3)CC2)CC1 | 0% |

An excerpt of these results, field by field.
> COc1ccc(Cl)cc1NC(=O)c1ccccc1N(Cc1ccccc1)S(=O)(=O)c1ccccc1
  Mtb growth: i
> COc1ccccc1N1CCN(C(=O)Nc2cccc3ccccc23)CC1
  Mtb growth: i
> CN1CCN(C2CCN(C(=O)c3ccc(-c4ccccc4)cc3)CC2)CC1
  Mtb growth: 0%
> CC(NC(=O)c1ccco1)c1ccc2c(c1)OCCO2 (stereo unspecified)
  Mtb growth: i

The list continues:
| SMILES | Mtb growth |
| --- | --- |
| CC(=O)N1CC2(C)CN(C(C)=O)CC(C)(C1)C2 | i |
| Cc1ccc(Nc2nnc(-c3cc4c(ccc5ccccc54)oc3=O)s2)cc1 | i |
| CC(=O)Nc1ccc(S(=O)(=O)N2CCN(c3cc(C)ccc3C)CC2)cc1 | i |
| CCOC(=O)c1c(NC(=S)NCCc2ccc(OC)c(OC)c2)sc(C)c1-c1ccccc1 | 9% |
| Cc1cccc(C(=O)NCCCN(C)CCCNC(=O)c2cccc(C)c2)c1 | i |
| O=C(Cn1cnc2ccccc2c1=O)Nc1ccc2c(c1)Cc1ccccc1-2 | i |
| Cc1ccc(OCCN2CCN(C)CC2)c([N+](=O)[O-])c1 | 1% |
| CSC1=C(C#N)C(c2cccc3ccccc23)CC(=O)N1 (stereo unspecified) | i |
| CCCC(=O)Nc1ccc(C(=O)Nn2cnnc2)cc1 | i |
| COc1ccc(NC(=O)CSc2nc3ccccc3c(=O)[nH]2)cc1 | i |
| COC(=O)c1cc(Br)ccc1NC(=O)Nc1ccc(OC)cc1 | i |
| Cc1ccc2c3c1C(=O)C(=O)N3C(C)(C)CC2(C)c1ccccc1 (stereo unspecified) | 2% |
| Cc1scc(C(=O)N2CCN(S(C)(=O)=O)CC2)c1-c1ccccc1 | i |
| CC(Sc1ccc(Cl)cc1)C(=O)Nc1ccc(S(=O)(=O)N2CCOCC2)cc1 (stereo unspecified) | i |
| CCC(C)N1CCN(Cc2ccc(Br)cc2)CC1 (stereo unspecified) | i |
| Cc1ccc(NC(=O)c2ccccc2-c2ccccc2)c(C)c1 | 18% |
| N#CC1=C(SCC(=O)Nc2ccccc2C(=O)c2ccccc2)NC(=O)CC1c1ccccc1F (stereo unspecified) | 3.1µg/mL* |
| CC(=O)CCc1oc2ccccc2c1-c1ccc(C)o1 | 0% |
| COc1ccc(Cl)cc1C(=O)NC(=S)Nc1cccc(C(=O)O)c1 | i |
| O=C(CNS(=O)(=O)c1ccc(Br)cc1)Nc1cccc(F)c1 | 1% |
| CCCCOc1ccc(C2c3c(oc4ccccc4c3=O)C(=O)N2c2nnc(C(C)C)s2)cc1 (stereo unspecified) | i |
| O=C(COc1ccc2c(c1)CCCC2)Nc1ccc2ccccc2c1 | i |
| COc1cc(OC)c(C(=O)Nc2ccc(Nc3ccccc3)cc2)cc1OC | i |
| COc1ccc(N/C(=N\c2nc(C)cc(C)n2)NC(=O)c2ccc(F)cc2)cc1 | i |
| CCCC(C)C(=O)Nc1ccc(S(=O)(=O)N2CCCC2)cc1 (stereo unspecified) | i |
| COc1ccc(N(CC(=O)NCc2ccco2)S(C)(=O)=O)cc1Cl | i |
| CC(C)CNC(=O)c1ccccc1NC(=O)c1ccccc1N(C)S(=O)(=O)c1ccccc1 | i |
| COC(=O)C1=C(C)N=C2SCCC(=O)N2C1c1cccc(F)c1 (stereo unspecified) | i |
| NCCNCCOc1ccc(OCc2ccccc2)cc1 | i |
| COc1ccccc1NC(=O)Cc1ccc(Br)cc1 | i |
| CCCCCCNC(=O)C(NC(=O)c1ccccc1)C12CC3CC(CC(C3)C1)C2 (stereo unspecified) | i |
| Cc1cc(NC(=O)COc2cc(C)c(Cl)c(C)c2)no1 | i |
| C#CCOc1c(Cl)cc(CNc2cc(Cl)ccc2C)cc1OCC | 23% |
| Cc1cccc(-n2c(CCN3C(=O)c4ccccc4C3=O)nc3ccccc3c2=O)c1C | i |
| C=CCn1c(COc2ccccc2)nnc1SCC(=O)Nc1ccc2ccccc2c1 | i |
| O=C(COc1ccc2ccccc2c1)N1CCN(Cc2cccc(F)c2)CC1 | i |
| CCN(CC)C(=O)c1cc(Br)c(C)c(C)c1C | 2% |
| COc1cccc(N2C(=S)N(c3ccc(Cl)cc3)C3CS(=O)(=O)CC32)c1 (stereo unspecified) | i |
| O=C(CSCc1ccccc1)Nc1nnc(C(F)(F)F)s1 | 17% |
| C=CCOc1c(Cl)cc(CNc2cc(Cl)ccc2C)cc1OC | i |
| COc1ccc(S(=O)(=O)N(CC(=O)Nc2cccc(C)c2C)c2ccc(Cl)cc2)cc1 | i |
| O=C(COC(=O)c1cc(-c2ccccc2)nc2ccc(Cl)cc12)c1cccc([N+](=O)[O-])c1 | i |
| CC(=O)Oc1ccc(-c2cccc(C(=O)O)c2)cc1 | i |
| O=S(=O)(NCCc1ccccc1)c1ccc(NS(=O)(=O)c2ccc(F)cc2)cc1 | i |
| CC(=O)Nc1ccc(Br)c2ccccc12 | i |
| CCOC(=O)c1ccccc1NC(=O)CN1C(=O)c2cccc3cccc1c23 | i |
| O=C(COc1cccc(NC(=O)c2ccc(Cl)cc2)c1)c1ccccc1 | 0% |
| CCOC(=O)c1c(NC(C)=O)sc(C)c1-c1ccccc1 | 1% |
| O=C(/C=C/Nc1cccc(O)c1)c1ccc(Br)cc1 | i |
| Cc1cccc(OCC(=O)Nc2ccccc2C(F)(F)F)c1 | i |

New compounds follow
| SMILES | Mtb growth |
| --- | --- |
| Cc1cccc(N2CCN(C(=O)c3ccc(-c4ccccc4)cc3)CC2)c1C | 2.3µg/mL* |
| O=c1ccc2cc(S(=O)(=O)NCc3cccs3)ccc2o1 | i |
| Cc1nc(N2CCC(C)CC2)nc(NCc2ccccc2)c1[N+](=O)[O-] | 2% |
| COc1ccc(OC)c(C(=O)CSC#N)c1 | i |
| O=C(COc1ccc(Br)cc1)Nc1ccc2c(c1)C(=O)NC2=O | i |
| COc1ccc(-c2nnc(SCC(=O)Nc3ccc(Cl)cc3Cl)o2)cc1 | 18% |
| COc1cc(C(=S)N2CCOCC2)ccc1OCc1ccccc1F | 1% |
| CNS(=O)(=O)c1ccc(NC(=O)c2cc(-c3ccccc3)nc3ccccc23)cc1 | i |
| COCCCNCCOCCOc1ccc(Br)cc1C | i |
| COc1ccc(S(=O)(=O)Nc2ccc(Cl)c(Cl)c2)cc1[N+](=O)[O-] | i |
| Cc1cccc2cccc(S(=O)(=O)NCCOc3ccccc3)c12 | i |
| Cn1c(=O)n(C)c2cc3c(cc21)nc1c2cccc4cccc(c(=O)n31)c42 | i |
| O=[N+]([O-])c1cccc(-c2n[nH]c(=S)n2Cc2ccccc2)c1 | i |
| NS(=O)(=O)c1ccc(NC(=S)NCc2cccnc2)cc1 | 2% |
| NC(=O)C1CCCN(C(=O)Nc2ccc(Cl)c(Cl)c2)C1 (stereo unspecified) | i |
| COC(=O)c1ccc(C)c(NC(=O)NC2CCCCC2)c1 | i |
| COc1ccccc1CNC(=O)Cc1c(F)cccc1Cl | 2% |
| COc1ccc(NC(=O)c2ccccc2Oc2ccccc2)c(OC)c1 | <0.1µg/mL* |
| Cn1c(=O)c2c(nc(N3CCN(c4ccccn4)CC3)n2Cc2ccccc2F)n(C)c1=O | i |
| O=C(c1ccc(COc2ccc3c(c2)CCC3)o1)N1CCN(c2ccccc2)CC1 | ? |
| CN(C)C(=O)C12CCC(C)(C(=O)O1)C2(C)C (stereo unspecified) | i |
| Cc1ccc(-c2cc(C(=O)Nc3cc(C)on3)no2)cc1 | 0% |
| CC(C)(C)NS(=O)(=O)c1ccc(NC(=O)COc2ccc(Br)cc2)cc1 | i |
| CCCS(=O)(=O)N1CCN(C(=O)c2cccc(Cl)c2)CC1 | i |
| CC(=O)NCCCc1nc2ccccc2n1Cc1ccc(Cl)cc1Cl | i |
| COc1cc(Cl)c(C)cc1NC(=O)Cc1cccs1 | 6% |
| CCOc1ccc(NS(=O)(=O)c2ccc(OC)c(Cl)c2)cc1 | i |
| COc1ccc2c(c1)C(S(=O)(=O)c1ccccc1)c1ccccc1O2 (stereo unspecified) | i |
| COc1ccccc1NC1=C(Cl)C(=O)N(c2cccc(C)c2)C1=O | 39% |
| OC(COc1ccc(OCc2ccccc2)cc1)CN1CCCCC1 (stereo unspecified) | i |
| COc1ccccc1OCCOc1ccc(Cl)cc1Cl | 7% |
| CCOc1ccc(NS(=O)(=O)c2ccc(NC(=O)COc3ccc(Cl)cc3C)cc2)cc1 | i |
| O=C(O)c1cc(-c2ccccc2Cl)on1 | i |
| Cc1noc(NS(=O)(=O)c2ccc(NC(=O)CSc3nnc(-c4ccccc4)n3C3CCCCC3)cc2)c1C | i |
| CCOCCC(=O)Nc1nnc(SCCOC)s1 | i |
| CCn1c(SCC(=O)Nc2cc(Cl)cc(Cl)c2)nnc1-c1ccccc1C | i |
| O=C(CCCN1C(=O)c2cccc3cccc(c23)C1=O)N1CCOCC1 | 13% |
| N#C/C(=C(/O)c1ccc(-c2ccccc2Cl)o1)c1nc2ccccc2s1 | i |
| O=C(N/N=C/c1ccc2c3c(cccc13)CC2)c1ccc(CN2CCOCC2)cc1 | i |
| CCCc1c(C)nc(Nc2nc(C)c3ccccc3n2)[nH]c1=O | 1% |
| COC(=O)CC(c1ccc(OC)c(OC)c1)c1ccc(OC)c(OC)c1 | i |
| NC(=O)C1CCN(C(=O)CCc2ccccc2)CC1 | i |
| CCC(C(=O)O/N=C(\N)c1cccnc1)c1ccccc1 (stereo unspecified) | i |
| CCN(CC)C(=O)c1sc(NC(=O)c2cccc(C)c2)c(C(=O)OC)c1C | 1% |
| CC12CCC(C(=O)O)(CC1=O)C2(C)C (stereo unspecified) | i |
| Cc1ccc(-c2nc(-c3ccccc3Br)no2)cc1 | i |
| COC(=O)COc1c(Cl)cc(C=O)cc1Br | i |
| COc1cccc(N(CC(=O)Nc2cccc(F)c2)S(=O)(=O)c2ccccc2)c1 | i |
| N#CC1=C(N)Sc2ccc(F)cc2C12C(=O)NC1=C2C(=O)c2ccccc21 (stereo unspecified) | i |
| CCOc1c(O)ccc(C2NC(=O)NC(C)=C2C(=O)OC)c1[N+](=O)[O-] (stereo unspecified) | i |

Next section
| SMILES | Mtb growth |
| --- | --- |
| CCC(=O)Nc1ccccc1C(=O)OCc1ccc(Br)cc1 | 7% |
| C#CCN1C(=O)C(O)(CC(=O)c2ccco2)c2ccccc21 (stereo unspecified) | i |
| OC(COCc1ccc(Cl)cc1)CN1CCN(c2ccccc2F)CC1 (stereo unspecified) | i |
| Cc1cc(C)c(C#N)c(S(=O)(=O)Cc2ccc(Cl)cc2)n1 | i |
| CN(C)CCN1C(=O)c2oc3ccc(Cl)cc3c(=O)c2C1c1cccc(Br)c1 (stereo unspecified) | i |
| COc1ccc2c(=O)c(-c3ccc(C(=O)O)cc3)c(C(F)(F)F)oc2c1 | i |
| COc1ccccc1NS(=O)(=O)c1cc([N+](=O)[O-])ccc1C | i |
| COc1cccc(OCC(O)CN2CCC(C)CC2)c1 (stereo unspecified) | i |
| O=C(c1cc2ccccc2o1)c1nc2c(n1O)CCCC2 | i |
| O=S(=O)(Nc1ncccn1)c1ccc(NC(=S)NCc2ccco2)cc1 | i |
| Cc1cc(OCc2nc3ccccc3s2)ccc1N | i |
| CC(Sc1ccccc1)C(=O)NC1CCCCC1 (stereo unspecified) | i |
| COC(=O)CN(c1ccccc1OC)S(=O)(=O)c1ccc(OC)cc1 | i |

5 compounds picked at random from those above, as already listed:
| SMILES | Mtb growth |
| --- | --- |
| Cc1cccc(N2CCN(C(=O)c3ccc(-c4ccccc4)cc3)CC2)c1C | 2.3µg/mL* |
| NC(=O)C1CCN(C(=O)CCc2ccccc2)CC1 | i |
| O=C(NC1CCN(Cc2ccccc2)CC1)c1c(F)cccc1F | i |
| CC(Sc1ccc(Cl)cc1)C(=O)Nc1ccc(S(=O)(=O)N2CCOCC2)cc1 (stereo unspecified) | i |
| COc1ccc(NC(=O)Nc2ccc(F)cc2F)c(C)c1 | i |

Assay outcomes: PubChem BioAssay, Southern Research Institute

This is a subset; count on the stated rates, not on these rows.
